Beta apoptosis: beta cell apoptosis inhibition. AID 435005. INS-1E cytokine-induced death, ATP luminescence, 48 h; percent of positive-control rescue, neutral wells zero. 300,000 tested, 0.8% active. protection from apoptosis, % (test concentration not listed);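 active means all replicates at 75% or more, or half of them and the mean; inconclusive means half reach 75% but not the mean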;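 further: 0% = cytokine-treated negative control wells and 100% = positive control rescue; higher means more ATP so stronger rescue from cytokine killing; wells of about 40 µL received 100 nL stock; the first replicate is given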
UCH37 DUB inh: human UCH37 deubiquitinating enzyme inhibition; purified proteasome/UCH37, Ub-AMC cleavage fluorescence; Q9Y5K5; 330,000 tested, 0.33% active; AID 588478; inhibition, % (no concentration beside the values);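 active means mean of two replicates above 20%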;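 further: 0% = compound-free wells with enzyme and 100% = wells lacking proteasome; stock transfer was 100 nL into about 20 µL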
Target sequence (Q9Y5K5 whole entry, looked up): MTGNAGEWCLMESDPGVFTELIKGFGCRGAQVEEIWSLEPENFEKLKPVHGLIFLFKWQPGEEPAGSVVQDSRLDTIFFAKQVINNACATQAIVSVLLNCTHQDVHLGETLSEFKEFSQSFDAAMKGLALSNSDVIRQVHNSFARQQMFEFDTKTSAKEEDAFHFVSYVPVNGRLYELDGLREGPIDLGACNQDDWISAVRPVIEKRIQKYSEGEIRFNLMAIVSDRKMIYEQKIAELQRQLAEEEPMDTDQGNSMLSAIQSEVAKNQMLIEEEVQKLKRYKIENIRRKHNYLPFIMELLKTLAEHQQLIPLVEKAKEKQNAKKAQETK
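Schedule: 30 min plus 25 min, room temperature / Material: human UCH37 within purified proteasomes / Technique: AMC fluorescence intensity at 355/460 nm / Buffer or medium: pH 7.4 Tris-HCl (50 mM) with ovalbumin, ATP-MgCl2, DTT / Controls: wells without proteasome as full block, compound-free enzyme plus substrate as uninhibited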
T cruzi inh: T. cruzi replication inhibition; T. cruzi beta-gal in NIH3T3, luminescence, 90 h; 300,000 tested, 1.4% active; inhibition, % (no concentration beside the values); AID 1885;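 active means mean inhibition across valid replicates above about 55%, limit read from the data; inconclusive means mean below that limit but half or more replicates reach it; inactive means mean below it, under half of replicates reach it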;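 further: signal also drops with host cell toxicity which is not excluded here; 0% = plate median of DMSO wells and 100% = zero luminescence signal; higher percent means less beta-gal luminescence so fewer parasites; stock transfer was 50 nL into about 50 µL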
RanGTP-Imp inh: disruptors of Ran-importin-beta complex formation – biochemical, FRET, CFP-Ran, YFP-importin-beta, homogeneous, primary screen; cell-free CFP-Ran/YFP-importin-beta FRET ratio; inhibition, % (test concentration not listed); 300,000 tested, 1.1% active;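 active means most replicates above 15%; inconclusive means exactly half above 15%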;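 further: 0% = DMSO wells and 100% = Ran loaded with GDP instead of GTP; wells of about 40 µL received 100 nL stock; the first replicate is given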
Beta2AR agonist: agonists of human beta-2 adrenergic receptor inducing internalization; P07550; Am2.2-beta2AR cells, FAP receptor internalization, flow cytometry; reference of the scale not given here; response, % (test concentration not listed); 340,000 tested, 0.43% active; AID 504454;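 active means response above a set limit, near 3 SD of response in nonfluorescent compounds, cut at about 42% in these data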;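 further: stock transfer was 100 nL into about 11 µL; a reference agonist was the positive control; negative values mostly stem from fluorescent compounds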
Target sequence (P07550 whole entry, looked up): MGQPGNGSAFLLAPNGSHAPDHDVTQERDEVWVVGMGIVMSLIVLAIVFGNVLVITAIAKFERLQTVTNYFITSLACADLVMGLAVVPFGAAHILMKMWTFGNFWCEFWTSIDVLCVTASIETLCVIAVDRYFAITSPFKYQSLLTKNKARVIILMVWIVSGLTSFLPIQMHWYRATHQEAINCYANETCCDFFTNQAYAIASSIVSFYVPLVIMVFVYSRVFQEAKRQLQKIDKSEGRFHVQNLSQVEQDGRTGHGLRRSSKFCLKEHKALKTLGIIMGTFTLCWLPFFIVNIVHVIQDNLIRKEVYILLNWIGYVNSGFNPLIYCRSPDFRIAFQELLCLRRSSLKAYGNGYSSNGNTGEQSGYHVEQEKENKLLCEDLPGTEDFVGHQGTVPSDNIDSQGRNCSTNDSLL
A1 inh: inhibitors of the anti-apoptotic protein A1, read as caspase activation; MEF A1-2A-BIM cells, Caspase-Glo 3/7 luminescence, 3 h; percent of clofoctol response, vehicle zero; caspase activation, % (concentration not given with the values); 330,000 tested, 0.066% active; AID 2462;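 active means over half of replicate activation scores above 10%, or exactly half above 10 with the replicate mean above 10; inconclusive means replicate mean below 10 yet half the replicates above 10; inactive means over half of replicates below 10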;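 further: wells of about 30 µL received 50 nL stock; many hits fall short of the cut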
LANA-H2B inh: blocks KSHV LANA binding to histone H2A/H2B | Q9QR71 | AID 2629 | cell-free LANA-H2A/H2B peptide, fluorescence polarization | 320,000 tested, 0.6% active | inhibition, % (concentration not given with the values); in the data active means inhibition mostly above about 10%, no sharp cut-off; inactive means mostly below about 6.7%;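 further: stock transfer was 7.5 nL into about 10 µL; 0% = median of vehicle wells and 100% = median of positive control wells; one replicate is shown; the record names a cut of 25% in any replicate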
Calb FLC: C. albicans growth modulation with fluconazole. growth inhibition, % (test concentration not listed). C. albicans CaCi-2 (fluconazole-resistant clinical isolate) + fluconazole, Alamar Blue growth, 48 h. 300,000 tested, 0.57% active;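 active means most replicates above 75%; inconclusive means exactly half above 75%; inactive means most below 75%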;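 further: all wells also contain fluconazole at 8 µg/ml as a sub-toxic cotreatment; 0% = median of DMSO wells and 100% = median of geldanamycin control wells; wells of about 8 µL received 7.5 nL stock; the first replicate is given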
Active calls of the source: *; ? = inconclusive; / = no result given.

SMILES | Beta apoptosis | UCH37 DUB inh | T cruzi inh | RanGTP-Imp inh | Beta2AR agonist | A1 inh | LANA-H2B inh | Calb FLC
CCOC(=O)C1CCN(C(=O)c2ccc3c(c2)S(=O)(=O)c2ccccc2C3=O)CC1 | / | 3.6 | 15 | 1.4 | 4 | 0.2 | -5.0 | -1
CCC(=O)Nc1ccc(/C(C)=N\NC(=O)c2ccc(OC)cc2)cc1 | 0 | / | -16 | 0.3 | -10 | 0.1 | 0.6 | -9
CCOC(=O)C(CN1CCCC1)c1ccccc1 (stereo unspecified) | 1 | 0.4 | -1 | 0.9 | -11 | 0.6 | 2.3 | -2
O=C(NNC(=O)c1ccc2ccccc2c1)Nc1ccc(F)cc1 | 6 | 4.8 | -6 | -0.8 | -3 | 0.0 | 2.4 | -3
Cc1cc(NC(=O)CCN2C(=O)c3ccccc3C2=O)no1 | 4 | 4.6 | -16 | -1.6 | -6 | 0.4 | -0.4 | -5
CCOc1ccc(NC(=O)c2ccc(CN3CCc4ccccc4C3)cc2)cc1 | -5 | -3.6 | 8 | 0.0 | -6 | -4.5 | 0.2 | 0
NC(=O)c1ccccc1NC(=O)CSc1nc2ccccc2c(=O)[nH]1 | 3 | 3.9 | -3 | 1.1 | -1 | 0.0 | -6.7 | 1
Cc1cc(-c2nnc(CSc3nnc(NC(=O)c4ccc(C(C)(C)C)cc4)s3)o2)ccc1[N+](=O)[O-] | 23 | 2.5 | -29 | -1.4 | 2 | -0.4 | 8.6 | -1
Cc1ccccc1NS(=O)(=O)c1nnc(NC(=O)c2ccc(Br)cc2)s1 | 7 | 2.5 | -11 | 24 | 6 | 0.2 | -7.1 | 17
CCCc1cc(=O)oc2cc(C)cc(OC(C)C(=O)NCCCN3CCOCC3)c12 (stereo unspecified) | 3 | -99 | 3 | 0.0 | 9 | -0.5 | -0.8 | 38
CC(C)CNC(=S)NNC(=O)c1ccco1 | -8 | 5.4 | -9 | -0.5 | 3 | -1.0 | 0.0 | 9
COc1ccc2nc(-c3ccccc3)cc(OC)c2c1 | -6 | -20 | -9 | -0.5 | -12 | 0.0 | 3.7 | 2
CC(C)CN(C(=O)CSc1nc2ccccc2[nH]1)C1CCS(=O)(=O)C1 (stereo unspecified) | 2 | 3.2 | / | / | -18 | 0.7 | -5.1 | /
C[C@@H]1CC[C@@]2(O[C@@H](CCO)C[C@@H](O)[C@@H]2O)O1 | -3 | -0.5 | -4 | -0.1 | -7 | 0.2 | 0.2 | -2
CCOC(=O)c1c(NC(=O)c2ccoc2C)sc2c1CCC2 | -1 | -92 | -1 | 1.8 | -2 | 0.3 | -2.8 | 12
NC(=O)C1(N2CCCCC2)CCN(C(=S)Nc2ccc(F)cc2)CC1 | -2 | 0.9 | -39 | -2.8 | 17 | 2.4 | -4.3 | -3
COc1ccc(CCNS(=O)(=O)c2ccc3c(c2)oc(=O)n3C)cc1OC | -3 | 0.0 | -4 | -4.2 | -3 | 0.4 | -2.1 | -4
CCC(C)(C)n1nnnc1CN1CCC(O)(c2cccc(C(F)(F)F)c2)CC1 | -2 | 0.5 | 6 | -3.7 | -5 | -0.6 | -2.6 | -23
COC(=O)N/N=C/c1ccc(-c2cc(Cl)cc(Cl)c2)o1 | -2 | / | 25 | 2.2 | -1 | 0.3 | -4.5 | 79*
CC1C(=O)N2CCCc3cc(NS(=O)(=O)c4ccc(F)cc4)cc1c32 (stereo unspecified) | 2 | 2.0 | -7 | -14 | 4 | 0.4 | -0.9 | -2
Cc1ccccc1OCCC(=O)Nc1cc(S(=O)(=O)N2CCOCC2)ccc1OC(C)C | / | 2.8 | 11 | 2.4 | 4 | -0.9 | 5.5 | 2
CCN(CC)S(=O)(=O)c1ccc(NC2=NS(=O)(=O)c3ccccc32)cc1 | 5 | -9.3 | -3 | 0.8 | -2 | -0.1 | -4.9 | -13
C=CCOC(=O)/C=C/C(=O)NC(N)=O | -19 | / | -17 | -2.8 | 7 | 0.6 | 0.7 | -3
CC1(C)C2CC=C(/C=N/NC(=O)c3ccc(Cl)cc3)C1C2 (stereo unspecified) | -4 | / | 16 | -1.0 | 2 | 0.1 | 1.0 | -5
CCN(CC)C(=O)c1sc2c(c1C)c(=O)n(-c1ccc(OC)cc1OC)c(=O)n2CC(=O)c1ccccc1 | 1 | 0.8 | 19 | 2.1 | 0 | 0.5 | -0.7 | 30
Remaining list, next part:
SMILES | Beta apoptosis | UCH37 DUB inh | T cruzi inh | RanGTP-Imp inh | Beta2AR agonist | A1 inh | LANA-H2B inh | Calb FLC
CCC(=O)Nc1nc(-c2cc([N+](=O)[O-])cs2)cs1 | -2 | -2.2 | -3 | 8.1 | -7 | 1.8 | 2.7 | -5
CCOC(=O)c1oc2ccc(S(=O)(=O)N3CCC(C)CC3)cc2c1C | 1 | 4.5 | -2 | 1.2 | -1 | 0.0 | -4.9 | -1
O=S1(=O)CCC(SCc2nc3sccn3c2Br)C1 (stereo unspecified) | 0 | 1.6 | 1 | -4.0 | -22 | 0.5 | -1.6 | -4
CC1CCN(CC(=O)Nc2ccccc2-c2ccccc2)CC1 | -3 | 2.3 | 27 | 4.2 | 2 | 0.0 | 2.7 | 43
C[n+]1ccccc1COc1ccc(C(C)(C)C)cc1 | 65 | 1.8 | 15 | 3.4 | 3 | 1.2 | 2.1 | -19
O=[N+]([O-])c1ccc2[nH]c(O)c(N=NC3CS(=O)(=O)CC3O)c2c1 (stereo unspecified) | -3 | 13 | -12 | 3.3 | 6 | -0.3 | 3.1 | 7
COc1ccccc1CNC(=O)C(=O)NCC(c1ccco1)N1CCOCC1 (stereo unspecified) | -5 | 0.4 | -5 | 2.1 | -6 | -0.1 | -4.5 | 6
Cc1ccc(-c2c(C(=O)O)c(C(=O)O)c3n2CSC3)cc1 | 0 | 1.2 | -1 | 0.2 | -8 | 0.3 | -5.4 | -2
Cc1nc2ccc(NC(=O)COc3cccc(F)c3)cc2s1 | 1 | 0.2 | -6 | 1.7 | -4 | 0.1 | 0.0 | 19
O=c1cc(-c2ccc(O)cc2)oc2c(C3O[C@H](CO)[C@@H](O)[C@H](O)[C@H]3O)c(O)cc(O)c12 (stereo partly specified) | 4 | 6.8 | / | / | 2 | 0.6 | 8.4 | /
c1csc(C2C3=C(Nc4ncnn42)c2ccccc2OC3)c1 (stereo unspecified) | -7 | -39 | -11 | 3.2 | -8 | -0.3 | -2.8 | -5
O=C(CCNS(=O)(=O)c1ccccc1F)N1CCN(Cc2ccccc2)CC1 | -8 | 1.1 | -11 | -3.4 | -3 | 1.7 | -2.2 | 0
Oc1ccccc1N1CCN(C(c2ccccc2)c2ccccc2)CC1 | -3 | 1.8 | 10 | ? | -4 | 0.4 | -3.5 | -10
COC(=O)[C@]1(C)N[C@H](CN(C)S(=O)(=O)c2ccccc2)[C@@H]2C(=O)N(Cc3ccccc3)C(=O)[C@@H]21 | -4 | 0.9 | / | / | -15 | 0.4 | / | /
COc1ccc(OC)c(S(=O)(=O)N2CCC3(CC2)OCCN3S(=O)(=O)c2cccs2)c1 | -1 | 2.7 | 22 | -1.3 | 2 | 0.0 | 1.5 | -4
O=C(CCNC(=O)C1CCN(S(=O)(=O)c2ccc(F)cc2)CC1)NCc1ccncc1 | -2 | 4.5 | -13 | 0.1 | 6 | -0.3 | 5.7 | -1
COc1ccc(-n2nc(C(=O)NCC(=O)Nc3cc(C)ccc3OC)c3ccccc3c2=O)c(OC)c1 | -3 | -1.3 | 15 | 2.2 | -1 | 0.2 | 4.1 | 28
O=C(Nc1cccc([N+](=O)[O-])c1)C12CC3CC(C1)CC(n1cnc([N+](=O)[O-])n1)(C3)C2 | -11 | 1.4 | 64* | 0.8 | -1 | 1.9 | -2.5 | -4
OC(c1ccc(OCc2ccccc2)cc1)c1nnc(-c2ccccc2)o1 (stereo unspecified) | -3 | -4.4 | 3 | 0.8 | -3 | -0.8 | -1.7 | -17
N#Cc1c(N2CCN(C(=O)c3ccccc3Cl)CC2)nc(-c2ccccc2)c2c1CCCC2 | 49 | -62 | 57* | -0.7 | 6 | 0.5 | 1.7 | 14
CC(=O)c1cccc(NC(=S)NC(=O)c2ccc(Br)cc2)c1 | 8 | 5.1 | 2 | 1.0 | -20 | -0.6 | / | 3
COc1ccccc1CN1CC(C(=O)NCc2ccc(C)c(F)c2)CCC1=O (stereo unspecified) | -4 | 3.3 | -2 | 1.4 | -6 | 0.2 | 0.2 | -8
CC(=O)/C(N=Nc1ccc(-n2ccc(C(F)(F)F)n2)cc1)=C(\C)O | / | 2.6 | -8 | -1.4 | 13 | 0.8 | -10 | -7
CCc1nnc(NC(=O)CSc2nc3ccc(OC)cc3[nH]2)s1 | -11 | 3.9 | -3 | 9.9 | -3 | -0.1 | -2.0 | ?
COc1ccc(-c2nnc(SC)nc2-c2ccc(OC)c([N+](=O)[O-])c2)cc1[N+](=O)[O-] | 4 | 5.8 | 20 | 0.0 | -15 | -0.7 | 3.5 | ?
The list continues:
SMILES | Beta apoptosis | UCH37 DUB inh | T cruzi inh | RanGTP-Imp inh | Beta2AR agonist | A1 inh | LANA-H2B inh | Calb FLC
CCCCn1c(N)c(NCC(C)C)c(=O)[nH]c1=O | -2 | -26 | -8 | 3.0 | -4 | -0.5 | -2.5 | -3
O=C(O)CSc1c(-c2ccccc2)c2cc(Cl)ccc2[nH]c1=O | -3 | 7.0 | 1 | 1.5 | 1 | 0.6 | 2.3 | -17
Nc1cccc2c1C(=O)N(CC(=O)NC13CC4CC(CC(C4)C1)C3)C2=O | 7 | -117 | 4 | 5.5 | -3 | 0.5 | 1.6 | -8
O=[N+]([O-])c1c(NCCO)cc(N2CCN(Cc3ccc4c(c3)OCO4)CC2)c2nonc12 | 6 | 8.5 | 4 | 0.1 | -1 | 0.6 | -6.0 | 2
Cc1cc(C)nc(SCc2nc(N)nc(-c3ccccc3O)n2)n1 | -25 | -0.1 | -8 | ? | -7 | 1.2 | -2.3 | 14
C=CCn1cnc2scc(-c3ccc(C)c(C)c3)c2c1=O | -1 | 0.1 | 4 | -3.1 | 0 | -0.2 | -4.1 | 5
c1ccc(-c2cn(-c3ccccc3)c3ncnc(N4CCCCC4)c23)cc1 | 3 | 0.2 | -2 | 0.8 | 17 | -0.7 | 5.5 | -6
Cc1ccc(-n2ncc3c2CCCC3NC(=O)CSc2ccccn2)cc1C (stereo unspecified) | 1 | 0.6 | -10 | 5.6 | 0 | -0.5 | 2.9 | 17
COC(=O)c1ccc2c(=O)n(NC(C)=O)c(=S)[nH]c2c1 | 2 | -0.4 | -10 | 7.1 | 3 | 0.4 | 2.5 | ?
CCn1c(-c2ccccc2)csc1=Nc1ccc(O)cc1 | 10 | 8.2 | -2 | -0.2 | 0 | 0.1 | -4.5 | -51
Cn1cccc1/C=N/NC(=O)c1cccnc1 | -1 | / | -21 | 0.6 | -2 | -0.1 | -1.0 | 6
O=C1C2CCc3ccccc3C2N1c1ccccc1 (stereo unspecified) | 14 | 3.9 | / | / | 4 | -0.4 | 2.3 | /

Screening data as filed in PubChem.
